Source: PubChem (National Center for Advancing Translational Sciences (NCATS))
miR-21 FLuc = raises the signal of a miR-21 reporter | Potency, µM (top dose mostly 38.3 µM), for the others: at the top dose reporter change, positive = more light | HeLa miR-21 FLuc reporter, luciferase, 48 h | 340,000 tested, under 10 active; active = well fitted rising curve with a large enough effect; inconclusive = small, poorly fitted or top-dose-only effect; inactive = no such curve, though single readings can be large or run the other way;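 further: % of control where 0% means no effect; miR-21 action dims this reporter so a rising signal means less miR-21 action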
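HeLa miR-21-FLuc reporter line, endogenous miR-21; 2000 cells/well in DMEM/10% FBS; compound titration up to ~40uM final, 48 h, 37 degree Celsius; luciferase detection reagent, 15 min lysis, CCD luminescence.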
Rango dissoc inh = inhibition of RanGTP-driven Rango-importin beta dissociation | AID 540253 | O95149+P62826 | 340,000 tested, 0.071% active | Potency, µM (titrated, usually from 46.1 µM), inactives show at the top dose activity change, negative = inhibition | Biochemical FRET Rango-importin beta, RanGTP-induced dissociation; active means falling FRET ratio curve, often poorly fitted, with flat reads before Ran was added; inconclusive means other falling curves, or compound fluorescence or quenching; inactive means flat or rising ratio curve;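 further: potency means the concentration at half of the fitted maximal effect; % of control where 0% means no effect; nearly all actives have a fitted effect of over 45% in size; -100% = wells without RanGTP and RCC1; the record marks most hits as doubtful in a second field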
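FRET read at 45 min, room temperature: inhibitors block the CFP/YFP signal rise when RanGTP (0.6 uM Ran, 2 mM GTP, 0.2 uM RCC1) frees Rango (0.1 uM) from importin beta (0.25 uM). Pre-read after 5 min compound exposure flags interference.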
Rango-impB inh = Rango-importin beta binding inhibition; AID 540263; Rango CFP/YFP FRET sensor + importin beta, 45 min; 340,000 tested, 0.031% active; Q14974; Potency, µM (series often up to 92.2 µM), inactives show top-dose inhibition of complex formation; active = rising FRET ratio curve, often small or poorly fitted; inconclusive = mostly compound fluorescence or quenching in the first reads; inactive = flat curves in all reads;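 further: potency means the concentration at half of the fitted maximal effect; 0% = DMSO wells and 100% = buffer wells lacking importin beta; nearly all actives have a fitted effect of over 15% in size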
Target sequence (Q14974 whole entry, looked up): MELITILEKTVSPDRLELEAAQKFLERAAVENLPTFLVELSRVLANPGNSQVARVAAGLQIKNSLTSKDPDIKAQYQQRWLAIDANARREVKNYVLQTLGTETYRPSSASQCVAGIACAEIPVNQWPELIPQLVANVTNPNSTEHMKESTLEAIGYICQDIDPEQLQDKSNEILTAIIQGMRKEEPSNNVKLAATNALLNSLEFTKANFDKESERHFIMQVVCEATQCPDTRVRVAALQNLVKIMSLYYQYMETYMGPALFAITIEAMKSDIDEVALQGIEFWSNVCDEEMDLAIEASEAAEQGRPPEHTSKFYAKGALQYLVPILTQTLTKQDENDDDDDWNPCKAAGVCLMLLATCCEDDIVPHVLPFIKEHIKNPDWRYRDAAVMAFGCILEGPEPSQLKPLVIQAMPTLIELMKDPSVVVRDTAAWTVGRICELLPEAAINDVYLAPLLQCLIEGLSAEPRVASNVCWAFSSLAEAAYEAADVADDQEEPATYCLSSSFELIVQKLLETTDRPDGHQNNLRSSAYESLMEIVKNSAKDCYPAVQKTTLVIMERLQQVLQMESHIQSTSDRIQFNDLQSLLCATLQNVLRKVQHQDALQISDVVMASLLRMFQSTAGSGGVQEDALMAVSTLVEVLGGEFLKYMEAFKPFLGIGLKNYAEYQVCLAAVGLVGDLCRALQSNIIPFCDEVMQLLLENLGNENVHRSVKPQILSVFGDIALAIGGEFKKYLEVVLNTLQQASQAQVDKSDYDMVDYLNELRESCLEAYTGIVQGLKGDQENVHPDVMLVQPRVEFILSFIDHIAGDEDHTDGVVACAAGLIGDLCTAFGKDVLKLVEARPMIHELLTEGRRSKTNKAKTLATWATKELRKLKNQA
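Inhibition scored from the CFP 486 nm/YFP 530 nm FRET ratio 45 min after adding 0.125 microM importin beta to 50 nM Rango biosensor preincubated 5 min with compound (room temperature, PBS with DTT, Tween-20, BSA). No-importin wells as positive control.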
GLA inh pH 4.5 = alpha-galactosidase A (human) inhibition, pH 4.5; purified enzyme, 4-MU-alpha-Gal fluorescence, pH 4.5; activity change, negative = inhibition, % at 105 µM; 230,000 tested, under 10 active; inconclusive = small, poorly fitted or top-dose-only inhibition, or a rising curve; inactive = flat fitted curve, though single readings scatter; no compound was filed as active;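 further: 0% = full activity with enzyme and -100% = basal without enzyme; dose as in the result columns while the protocol names 77 µM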
Numbers without * were called inactive; u = inconclusive; x = no result given. Some of the compounds tested, so the mix of outcomes need not match the whole.

SMILES	miR-21 FLuc	Rango dissoc inh	Rango-impB inh	GLA inh pH 4.5
C=CCn1c(C)cc(C2=NNC(=NCC)SC2)c1C	u	-7%	-1.3%	-9
COc1ccc(-n2c(=O)cc(N3CC(C)OC(C)C3)[nH]c2=O)cc1 (centres undefined)	-6%	2%	-3.5%	1
CC(C)c1ccc(CNNC(=O)c2ccccc2)cc1	-56%	-12%	0.8%	x
CCOC(=O)[C@H]1[C@H]2COc3ccccc3[C@@H]2N2C(=O)CN(CC3CCCO3)C(=O)[C@@]12C (some centres undefined)	x	0%	2.0%	x
Cc1ccc(NCc2nnc(SCC(=O)OC3CCCCC3)o2)c(C)c1	-3%	0%	0.3%	7
O=C(CNC(=O)c1ccccc1O)N/N=C/c1ccccn1	-19%	-1%	-0.6%	1
COc1ccc(-n2c(C)nn(C)c2=O)c(OC)c1	-2%	-3%	-1.4%	3
COc1ccc(C2SCCN2C(=O)c2ccc([N+](=O)[O-])cc2)cc1 (centres undefined)	0%	2%	0.3%	-2
NC(=O)NCCCC(=O)OCC(=O)c1ccc2ccccc2c1	-6%	2%	-1.0%	-3
CCCn1cnc2c(c1=O)c1nc3ccccc3nc1n2CCc1ccccc1	-5%	1%	0.7%	6
CCN(CC(=O)N1CCN(Cc2ccccc2)CC1)S(=O)(=O)c1ccccc1	1%	-10%	-1.7%	x
CCOC(=O)c1c(C)c(C(=O)NCc2ccccn2)c(C)n1CC	-8%	-6%	3.9%	-11
O=C1COc2ccc(C(=O)COC(=O)c3ccccn3)cc2N1	x	-20%	0.1%	x
CC(=O)N1CCN(CC(=O)Nc2ccccc2Sc2ccccc2)CC1	-1%	-1%	-2.1%	-2
Cc1c2c(nc3ccccc13)CC(C)(C)CC2=O	-11%	-6%	-0.5%	-5

The closing 3 entries of the part before are carried over, then new ones follow.
SMILES	miR-21 FLuc	Rango dissoc inh	Rango-impB inh	GLA inh pH 4.5
O=C1COc2ccc(C(=O)COC(=O)c3ccccn3)cc2N1	x	-20%	0.1%	x
CC(=O)N1CCN(CC(=O)Nc2ccccc2Sc2ccccc2)CC1	-1%	-1%	-2.1%	-2
Cc1c2c(nc3ccccc13)CC(C)(C)CC2=O	-11%	-6%	-0.5%	-5
CC(C)C(=O)N=C1SC2CS(=O)(=O)CC2N1Cc1ccc(Cl)cc1 (centres undefined)	0%	11%	1.4%	1
COc1ccc(CNC(=O)CSc2nc3ccc(N)cc3s2)cc1	-18%	20%	-0.7%	-1
COC(=O)N/N=C/c1cn(CCCOc2ccc(C)cc2)c2ccccc12	17%	-13%	1.8%	-24
Cc1sc2nc(CN(Cc3cccs3)C(=O)C3CC3)[nH]c(=O)c2c1C	8%	4%	-0.7%	3
CC1CCCC(NC(=O)Nc2cccs2)C1C (centres undefined)	-4%	-8%	0.0%	4
COc1ccc(C(=O)CCNc2ccc3c(c2)OCCO3)cc1	-24%	10%	4.5%	-3
O=C1COc2ccc(C(=O)c3ccccc3)cc2CN1	-12%	2%	-0.1%	3
O=C1NN(c2ccc(F)cc2)C(=O)/C1=C\C=C\c1ccco1	-1%	-3%	-0.9%	-13
COC(=O)[C@@H]1[C@@H](C)OC(=O)N[C@H]1c1ccccc1	-2%	-1%	u	8
COc1ccccc1NC(=O)Nc1ccnn1C1CCN(C(=O)c2ccccn2)CC1	1%	-6%	-0.2%	x
Cc1nn(-c2ccc(F)cc2)c2c1cc(C#N)c1nc3ccccc3n12	-5%	1%	0.4%	1
CS(=O)(=O)Nc1ccc(C2=NN(C(=O)c3ccco3)C(c3ccco3)C2)cc1 (centres undefined)	14%	8%	0.0%	x
O=C(NCCNC(=O)c1ccccn1)c1cccc(F)c1	1%	1%	0.9%	x
CC(C)(C)n1ncc2c(=O)n(CC(=O)NC3CCCCC3)cnc21	-40%	1%	13%	-1
COC(=O)CCc1sc(NC2CCCCC2)nc1-c1ccc(OC)cc1	-16%	-8%	0.6%	-2

Compounds from the list above containing a thiophene ring, fused or not, in the order listed:
SMILES	miR-21 FLuc	Rango dissoc inh	Rango-impB inh	GLA inh pH 4.5
Cc1sc2nc(CN(Cc3cccs3)C(=O)C3CC3)[nH]c(=O)c2c1C	8%	4%	-0.7%	3
CC1CCCC(NC(=O)Nc2cccs2)C1C (centres undefined)	-4%	-8%	0.0%	4

More compounds
SMILES	miR-21 FLuc	Rango dissoc inh	Rango-impB inh	GLA inh pH 4.5
CCC1CCCCN1C(=O)/C=C/c1ccc2c(c1)OCO2 (centres undefined)	-32%	-7%	0.2%	x
CC(C)C(=O)NC(NCC1CCCO1)C(Cl)(Cl)Cl (centres undefined)	-3%	0%	-1.5%	15
CN(C1CCCCC1)S(=O)(=O)c1ccc(Cl)c(C(=O)O)c1	-1%	7%	-1.2%	1
CCNc1nc(SCCOc2ccc(Br)cc2)nc(N(C)C)n1	-14%	11%	-1.3%	1
COc1ccc(C2(CNC(=O)c3ccco3)CCOCC2)cc1	-5%	-7%	-1.7%	8
Cc1ccc(NC(=O)COC(=O)c2cccnc2Cl)cc1S(=O)(=O)N1CCOCC1	x	-9%	0.4%	x
N=C1C(c2ccccc2)=C(O)CN1c1cccc(O)c1	-9%	1%	-1.1%	7
O=C(c1cc(-c2ccccc2)nn1CC1CC(c2cccnc2)=NO1)N1CCOCC1 (centres undefined)	x	u	-0.4%	x
COc1cc(/C=C/C(=O)OCC(=O)NC2CCS(=O)(=O)C2)ccc1OC(F)F (centres undefined)	x	u	-3.0%	x
COC(=O)c1cc(-c2cccs2)nn1-c1ccccc1	2%	1%	2.3%	13
CCc1ccc(CNC(=O)Cc2ccc(NC(=O)C3=C(C)OCCS3)cc2)cc1	-12%	-6%	-1.4%	x
O=C1CN(C(=O)N[C@@H](Cc2ccccc2)C(=O)N[C@H](Cc2ccccc2)C(=O)O)c2ccccc2N1	-1%	16%	1.3%	x
COc1ccc(/C=C/C(=O)Nc2cccc(F)c2)cc1S(=O)(=O)N1CCOCC1	28%	-4%	-0.1%	-11
CCOC(=O)c1c(C)nn(-c2ccc(NC(=O)/C=C/C(=O)O)cc2)c1C	29%	24%	-3.0%	-6
Cc1cc(NC(=O)CCCS(=O)(=O)c2nc(-c3cccs3)cc(C(F)(F)F)n2)no1	u	5%	3.8%	-2
Cc1c(C(=O)OCc2ccc(F)cc2)sc2nc3n(c(=O)c12)CCC3	x	2%	0.3%	x
Cc1ccc2ccccc2c1NC(=O)Cn1nnc(-c2cccnc2)n1	-4%	-6%	8.7%	4
Nc1cc(C(=O)O)ccc1Sc1ccccc1C(=O)O	4%	-4%	u	8
CC(=O)c1sc2ccccc2c1OC(=O)c1ccco1	-3%	26µM*	u	1
CCN1CCN(C(=O)c2cc3c(OC)c(OC)c(OC)cc3[nH]2)CC1	-1%	13%	u	x
S=C(NCc1ccc(Cl)cc1)N1CCN(c2ccccn2)CC1	-2%	-12%	1.9%	3
Cc1cc(OCC(=O)OCC(=O)N2CC(C)CC(C)C2)ccc1Cl (centres undefined)	x	-5%	4.0%	x
O=C(COC(=O)c1cccnc1Cl)Nc1ccccc1OC(F)F	-1%	-18%	-0.4%	-1
Cn1c(N2CCOCC2)nc2c1c(=O)n(Cc1ccc(Cl)cc1)c(=O)n2C	x	2%	-4.4%	x
CCN(CC)C(=O)COc1ccc2c(-c3ccccc3)cc(=O)oc2c1	-2%	-6%	0.8%	x
C[C@H](CO)N1C[C@H](C)[C@@H](CN(C)C(=O)Nc2ccc(C(F)(F)F)cc2)Oc2ccc(NC(=O)Nc3ccc(C(F)(F)F)cc3)cc2C1=O	x	4%	-2.4%	x
O=S(=O)(Nc1ccc(N2CCCCC2)cc1)c1ccc(F)c(F)c1	-5%	19%	-3.5%	7
O=C(c1ccc(NS(=O)(=O)c2cccc(F)c2)cc1)N1CCCC1	1%	9%	-3.1%	x
COCCOc1ccc(C(F)(F)F)cc1NC(=O)c1ccccc1F	-2%	5%	1.9%	-2
Cc1ccn2cc(CCNC(=O)Cc3cccs3)nc2c1	-5%	-3%	4.6%	-1

In a second layout: 6 of the compounds above.
compound | miR-21 FLuc | Rango dissoc inh | Rango-impB inh | GLA inh pH 4.5
Cc1ccc(NCc2nnc(SCC(=O)OC3CCCCC3)o2)c(C)c1 | -3% | 0% | 0.3% | 7
O=C(CNC(=O)c1ccccc1O)N/N=C/c1ccccn1 | -19% | -1% | -0.6% | 1
COc1ccc(-n2c(C)nn(C)c2=O)c(OC)c1 | -2% | -3% | -1.4% | 3
COc1ccc(C2SCCN2C(=O)c2ccc([N+](=O)[O-])cc2)cc1 (centres undefined) | 0% | 2% | 0.3% | -2
NC(=O)NCCCC(=O)OCC(=O)c1ccc2ccccc2c1 | -6% | 2% | -1.0% | -3
CCCn1cnc2c(c1=O)c1nc3ccccc3nc1n2CCc1ccccc1 | -5% | 1% | 0.7% | 6

Additional results follow.
SMILES	miR-21 FLuc	Rango dissoc inh	Rango-impB inh	GLA inh pH 4.5
CC(=O)C1C(c2ccc(F)cc2)NC(=O)NC1(O)C(F)(F)F (centres undefined)	0%	-1%	u	8
COc1ccc(N2CCN(C(c3ccccc3OC)c3nnnn3C3CCCC3)CC2)cc1 (centres undefined)	3%	0%	0.3%	-13
CCOC(=O)N1CCN(C(=O)CCSc2ccc(Cl)cc2)CC1	-32%	1%	0.2%	-1
CCOC(=O)C1CCN(C(=O)C2CCN(S(=O)(=O)N3CCC4(CC3)OCCO4)CC2)CC1	-2%	-8%	2.2%	x
COC1CCCN(Cc2nc(Cc3ccccc3F)no2)C1 (centres undefined)	-12%	-3%	-2.6%	-3
Cc1cc(OC(C(=O)O)c2ccccc2)c2c(C)c(Cc3ccccc3)c(=O)oc2c1 (centres undefined)	11%	7%	-1.6%	-9
Cc1c(C)c2ccc(O)c(CN3CCN(C)CC3)c2oc1=O	-1%	-15%	u	x
COc1ccc(-c2nc(CS(=O)CC(=O)NCc3ccco3)c(C)o2)cc1OC (centres undefined)	-11%	1%	-0.1%	0
COC(=O)CNc1nc(-c2cccnc2)nc2ccccc12	3%	0%	1.2%	-2
Cc1ccc(-c2nnc(Nc3ccc(CC(N)=O)cc3)c3ccccc23)cc1S(=O)(=O)NCCO	-3%	3%	3.4%	x
O=[N+]([O-])c1ccc(O)c(C=NNc2ccc(S(=O)(=O)O)cc2)c1	x	-10%	-1.4%	x
Cc1ccnc(NC(=O)CN2C(=O)c3ccccc3S2(=O)=O)c1	x	8%	-1.8%	x
CC(=O)N(c1cccc(C)c1)S(=O)(=O)c1ccc(Cl)cc1	0%	6%	-0.6%	3
O=C(Nc1cccnc1)c1ccc(NC(=O)c2ccco2)cc1	-25%	7%	0.3%	-2
O=S1(=O)N=C(N/N=C/c2cccs2)c2ccccc21	0%	u	u	x
Cc1ccc(Nc2nc(N)c([N+](=O)[O-])c(NCc3ccccc3)n2)cc1	-21%	19%	0.8%	-3
O=C(c1ccc(F)cc1)N1C2CCC1CC(O)(c1ccccc1F)C2 (centres undefined)	-1%	2%	-0.6%	0
CC(C)N(Cc1ccccc1)C(=O)Cn1c(=O)cnc2ccccc21	-13%	-3%	-2.5%	4
O=C1CN(S(=O)(=O)c2ccccc2Cl)CCN1	x	17%	-1.4%	x
CCc1nnc(NS(=O)(=O)c2ccc(N3C(=O)C4CC=C(Cl)CC4C3=O)cc2)s1 (centres undefined)	-4%	u	u	-6
OC(COc1ccc(Cl)cc1)CN1CCN(c2ccccn2)CC1 (centres undefined)	x	9%	-1.6%	x
Cc1noc(/C=C/N(C)C)c1S(=O)(=O)N1CCCC(C(=O)NCc2cccs2)C1 (centres undefined)	0%	-14%	u	-8
CCOC(=O)CC(NC(=O)c1cc2cccc(OC)c2oc1=O)c1cccc([N+](=O)[O-])c1 (centres undefined)	-7%	-3%	-1.5%	7
O=C(NC1(C(F)(F)F)N=C(c2ccccc2)NC1=O)c1ccccc1F (centres undefined)	0%	0%	2.2%	2
